Mtb betalactam – beta-lactam sensitization of Mtb H37Rv, H37Rv; M. tuberculosis H37Rv growth with meropenem, percent inhibition; hits of this screen are not shown here; inhibition, % at 25 µM; hit rate 0.27% among 330,000; AID 434955, 2010;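 active = about 74% or more and at least 40 points above the plate without the antibiotic, then above 30% in a dose series; inconclusive = first-round hits that could not be retested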;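 also: growth measured after seven days incubation then overnight dye step; 0% = bacteria only wells and 100% = bacteria with antibiotic; twin plates without the antibiotic show which effects depend on it; some results filed as inactive read as strong as hits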
RecA intein inh – Mtb RecA intein splicing inhibitors, primary screen, biochemical, fluorescence, HTS; cell-free RecA intein splicing; Protein RecA (Mycobacterium tuberculosis (strain ATCC 25618 / H37Rv)), P9WHJ3; hit rate 0.75% among 290,000; AID 2221, 2009; inhibition, %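 (about 9 µM by stock and volumes)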; in the data active = inhibition above about 30%; inconclusive = no clear call, values can overlap the other calls;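 also: 0% = vehicle wells and 100% = reference inhibitor control wells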
Target sequence (P9WHJ3 whole entry, looked up): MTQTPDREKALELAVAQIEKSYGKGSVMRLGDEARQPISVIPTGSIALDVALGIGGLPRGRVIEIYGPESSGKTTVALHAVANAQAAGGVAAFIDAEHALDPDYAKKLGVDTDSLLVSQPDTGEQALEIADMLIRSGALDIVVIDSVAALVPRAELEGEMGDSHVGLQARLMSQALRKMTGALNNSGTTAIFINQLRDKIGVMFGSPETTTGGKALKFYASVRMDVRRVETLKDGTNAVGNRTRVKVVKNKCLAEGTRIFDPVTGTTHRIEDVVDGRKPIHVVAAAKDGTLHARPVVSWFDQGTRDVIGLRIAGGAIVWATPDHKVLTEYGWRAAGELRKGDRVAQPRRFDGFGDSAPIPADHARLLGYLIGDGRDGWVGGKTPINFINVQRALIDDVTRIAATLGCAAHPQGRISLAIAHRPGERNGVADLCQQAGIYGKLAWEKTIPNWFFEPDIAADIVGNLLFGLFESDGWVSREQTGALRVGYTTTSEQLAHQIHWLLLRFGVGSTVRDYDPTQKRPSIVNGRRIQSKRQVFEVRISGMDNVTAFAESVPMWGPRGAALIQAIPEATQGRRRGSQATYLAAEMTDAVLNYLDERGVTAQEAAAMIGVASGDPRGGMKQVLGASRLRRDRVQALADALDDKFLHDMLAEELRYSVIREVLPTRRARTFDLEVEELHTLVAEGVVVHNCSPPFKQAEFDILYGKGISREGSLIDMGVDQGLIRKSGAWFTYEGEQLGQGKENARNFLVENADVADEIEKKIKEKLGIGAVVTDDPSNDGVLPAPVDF
Arbovirus inh – antivirals against arbovirus infection, primary screen, cell-based, full library, 10K replicate subset; arbovirus infection cell-based antiviral screen; inhibition, % at 10 µM; hit rate 0.37% among 200,000; AID 1251, 2008;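 active = inhibition from about 30%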;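 also: bluetongue infection of BSR cells; cell survival read as ATP light after 72 h; 0% = infected wells without compound and 100% = uninfected wells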
YopH inh – YopH tyrosine phosphatase inhibitors, primary screen, biochemical, fluorescence Ex485/Em525. hit rate 0.16% among 140,000. YopH tyrosine phosphatase [Yersinia enterocolitica]. inhibition, %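 (about 10 µM by stock and volumes)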;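 active = inhibition of 50% or more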;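 also: controls were vehicle for no effect and minimum signal wells for full effect; inactives centre near -20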
Mtb H37Rv – M. tuberculosis H37Rv growth inhibitors, H37Rv strain (AID 1626). inhibition, % at 10 µM; hits with a dose series show IC50 in µM. M. tuberculosis H37Rv growth inhibition; higher % means a stronger effect. hit rate 0.95% among 220,000;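 active = confirmed in a dose series; inconclusive = inhibition above 80% but not taken into the dose series; inactive = below 80% or under 30% at every dose of the series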;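 also: bacteria incubated seven days before Alamar blue readout; 0% = bacteria only wells and 100% = bacteria with antibiotic wells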
Arbovirus inh repeat – recorded beside Arbovirus inh, whose call it bears; inhibition, %; measured here: 10K subset replicate screen; many hits read low in the repeat;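 first of two repeat runs on a subset; 0% = infected and 100% = uninfected wells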
Starred values were filed as active, the others as inactive; ? = inconclusive; . = not tested or not shown. Some of the compounds tested, so the mix of outcomes need not match the whole.

SMILES | Mtb betalactam | RecA intein inh | Arbovirus inh | YopH inh | Mtb H37Rv | others
Cc1cc[n+](-c2nc3ccccc3nc2[N-]S(=O)(=O)c2ccccc2)cc1 | -5.3 | -5.1 | -4.0 | -21.9 | -4.4%
O=C(CSc1cccs1)Nc1ccc(Cl)cc1 | 1.6 | 1.5 | . | . | 2.3%
CSc1ccc(CNC(=O)Cc2ccc(NC(=O)C3=C(C)OCCS3)cc2)cc1 | 2.9 | -0.1 | . | . | .
NC(=O)COC(=O)c1ccccc1Nc1ccc(SC(F)F)cc1 | -6.5 | 3.8 | 27.2 | -21.3 | 8.2%
Cc1nnc(NC(=O)C2=COCCO2)s1 | 1.1 | -1.2 | . | . | .
Cc1ccc2c(c1)C(c1ccncc1)=NNC(c1ccc(C(C)C)cc1)=N2 | . | . | 1.1 | -35.8 | -0.4%
CC(=O)N1CC(C)Sc2ccc(S(=O)(=O)NC3CCCCC3)cc21 (centres undefined) | 1.6 | 0.6 | . | . | .
Cc1nn(-c2ccccc2)c(C)c1/C=N/n1c(-c2ccncc2)n[nH]c1=S | 6.8 | 0.2 | 7.8 | . | -2.2%
COc1cccc(C2C(=O)c3ccccc3C2=O)c1 | -1.4 | 0.1 | . | . | -15.9%
COc1cc(/C=N\N=C2/SC(CC(=O)O)C(=O)N2c2ccc(O)cc2)ccc1O (centres undefined) | -6.0 | . | 6.1 | -29.6 | -9.3%
COCCn1cc(C(=O)NCc2ccco2)c2c3ccccc3n(C)c2c1=O | -0.7 | -0.5 | 2.8 | . | 0.9%
COc1ccc(NC(=O)c2ccc(F)cc2)cc1S(=O)(=O)Nc1cc(C)ccc1Br | -2.2 | 4.7 | -9.8 | -18.7 | -1.6%
CCCCCCCCCCOC(=O)Cn1c(COc2cccc(OC)c2)[n+](C)c2ccccc21 | 76.7 | 51.1* | . | . | .
O=C(/C=C/c1ccc2c(c1)OCO2)c1c(O)n(CCc2ccccc2)c(=O)[nH]c1=O | 99.4 | 6.9 | . | . | 6.87µM*
CC1=CC2=NC(=O)CC(C)(C(=O)N(CC(=O)NC3CCCC3)c3cc(C)cc(C)c3)N2C=C1 (centres undefined) | -4.4 | -1.5 | 6.2 | . | -2.8%
Cc1nn(CC(=O)NCc2ccco2)c(C)c1[N+](=O)[O-] | 1.6 | 0.0 | . | . | 5.9%
CC(=O)C1=C(O)C(=O)N(c2ccc(O)cc2)C1c1ccc(C)cc1 (centres undefined) | -0.2 | -2.7 | . | . | .
OC(CNCCc1ccc(C(F)(F)F)cc1)COC(c1ccccc1)c1ccccc1 (centres undefined) | 97.2 | 4.7 | . | . | .
O=C(CCC(=O)c1cccs1)NCc1ccc(Cl)cc1 | 3.2 | -2.1 | 4.8 | 9.1 | -6.9%
CCCCn1c(SCn2nnc3ccccc3c2=O)nc2cc(S(N)(=O)=O)ccc21 | 6.8 | 2.2 | -8.6 | -19.5 | -0.7%

Three entries picked at random from the list so far:
SMILES | Mtb betalactam | RecA intein inh | Arbovirus inh | YopH inh | Mtb H37Rv | others
CC1=CC2=NC(=O)CC(C)(C(=O)N(CC(=O)NC3CCCC3)c3cc(C)cc(C)c3)N2C=C1 (centres undefined) | -4.4 | -1.5 | 6.2 | . | -2.8%
CC(=O)C1=C(O)C(=O)N(c2ccc(O)cc2)C1c1ccc(C)cc1 (centres undefined) | -0.2 | -2.7 | . | . | .
O=C(/C=C/c1ccc2c(c1)OCO2)c1c(O)n(CCc2ccccc2)c(=O)[nH]c1=O | 99.4 | 6.9 | . | . | 6.87µM*

Following part
SMILES | Mtb betalactam | RecA intein inh | Arbovirus inh | YopH inh | Mtb H37Rv | others
O=C(CCn1nc(-c2ccc(Cl)cc2)ccc1=O)N1CCN(c2ccc(F)cc2)CC1 | 34.1 | -2.2 | . | . | .
COCCCNC(=S)NNC(=O)c1csc2ccccc12 | -0.9 | -5.9 | 5.1 | -37.2 | -26.3%
O=C(NCCc1csc(-c2ccc(Cl)cc2)n1)c1ccco1 | 4.5 | 2.2 | . | . | .
COC(=O)c1cccc(C(=O)N2CCCC(CNC(=O)c3ccccc3Cl)C2)c1 (centres undefined) | -18.2 | -1.1 | . | . | 0.2%
CCOC(=O)C1CCCN(C(=S)Nc2cccc(Cl)c2C)C1 (centres undefined) | -0.6 | -1.0 | 3.7 | -13.9 | 1.3%
Cc1nnsc1C(=O)N1CCN(c2ccc(C#N)cn2)CC1 | 2.2 | -1.9 | . | . | .
CNS(=O)(=O)c1ccc(NC(=O)Nc2cccc(F)c2)cc1 | 1.1 | 1.5 | -7.5 | . | -1.8%
COc1ccccc1CNC(=O)c1ccc2c(=O)n(CCCN3CCCC3=O)c(=S)[nH]c2c1 | 1.3 | -1.8 | 1.0 | . | -1.8%
COc1ccccc1/C=C/CN1CCSCC1 | -5.7 | 0.4 | . | . | .
Cc1ccc(C)c(NC(=O)Cn2nnc(C(=O)NCc3cccs3)c2N)c1 | -1.9 | -8.9 | -10.2 | -32.8 | -2.1%
O=C(O)c1n[nH]nc1-c1ccccc1 | 4.1 | -0.6 | -1.5 | . | 0.0%
COc1ccccc1CNC(=O)CCCc1nnc2n(C)c(=O)c3sccc3n12 | -5.1 | -2.4 | . | . | .
Cc1cccc(NC(c2ccc(C)s2)c2ccc3ccc(C)nc3c2O)n1 (centres undefined) | 40.0 | -1.1 | -31.4 | -10.3 | 58.6%
CC1(C)Cc2c(sc3c2C(=O)NC(c2cccnc2)N3)CO1 (centres undefined) | -18.2 | -10.2 | 2.7 | -26.5 | -6.4% | Arbovirus inh repeat=0.2
Cc1ccc(S(=O)(=O)N2CCC(C(=O)NCc3ccncc3)CC2)cc1 | -2.5 | -0.5 | 0.1 | -3.6 | -10.6%
CC(=O)Nc1ccc(OCc2cccc([N+](=O)[O-])c2)cc1 | 28.6 | -2.2 | -3.5 | . | 53.7%
CN(C)c1ccc(/C=C/c2ccc3c4ccccc4ccc3[n+]2-c2ccccc2)cc1 | . | . | -32.7 | . | ?
CCOC(=O)c1cnc(-c2ccccc2O)nc1Cl | 18.8 | -1.5 | 14.3 | . | 7.9%
CCC(CC)C(=O)OCC(=O)Nc1cc(OC)c([N+](=O)[O-])cc1C | 2.2 | 1.9 | 5.6 | -17.0 | 8.0%
CCCCOc1ccc(CC(=O)NCC(=O)O)cc1 | -2.9 | -1.2 | -6.8 | -37.8 | -0.2%
COc1ccc(C(=O)Nc2ccc(NC(=O)c3cccc(OC)c3)cn2)cc1 | -8.0 | -0.2 | . | . | .
O=C(CCCN1C(=O)/C(=C\c2ccccc2)SC1=S)Nc1ccc(C(=O)O)cc1 | -3.4 | 3.7 | . | . | .
CCC(=O)N(C)/C=C1\Sc2ccccc2C1=O | -11.1 | -2.1 | 4.7 | -34.1 | 0.7%
CC(=O)NC1(C(F)(F)F)NC(=O)N(CCc2ccccc2)C1=O (centres undefined) | -0.6 | -1.3 | . | . | .
Cc1ccc(S(=O)(=O)N(C)Cc2nc(-c3ccccn3)no2)cc1 | -8.5 | -3.4 | 7.0 | -18.0 | -7.6%
Cc1ccccc1NC(c1cccc(Cl)c1)c1nnnn1C1CCCCC1 (centres undefined) | 3.9 | -1.0 | -3.7 | -36.7 | 1.9%
CCOc1ccc(NC(=O)CNC(=O)c2ccc([N+](=O)[O-])cc2)cc1 | -0.9 | -0.4 | 2.5 | . | -6.5%
C=CCNC(=O)c1ccc(NC(=O)C2=CSCCO2)cc1 | 4.6 | -0.7 | . | . | .
O=C(Nc1ccccc1)c1cccc(N2C(=O)C3C4C=CC(C5CC45)C3C2=O)c1 (centres undefined) | -1.2 | -2.2 | . | . | .
Cc1onc(C(=O)Nc2cccc(C(F)(F)F)c2)c1[N+](=O)[O-] | -0.8 | 1.3 | . | . | .
Cc1ccccc1Cn1c2ccccc2c2cnn(CC(=O)NCCCN3CCN(C)CC3)c(=O)c21 | 1.5 | 2.9 | . | . | .
CC(=O)Oc1ccccc1C(=O)Oc1ccc(/C=N/n2cnnc2)cc1 | 1.4 | 1.0 | 5.5 | -25.0 | -1.8%
C/C(=N\NC(=O)OC(C)(C)C)c1cccc([N+](=O)[O-])c1 | 9.8 | -3.5 | -3.6 | -37.0 | -3.3%
COc1cc(OC)cc(-c2nc3ccccc3c(=O)n2OC(=O)c2ccc(C)c(C)c2)c1 | 27.6 | 0.6 | 18.2 | -6.8 | 2.6%
CCOC(=O)C1C(=O)C=C(C)C(C(=O)OCC)C1c1cccc([N+](=O)[O-])c1 (centres undefined) | 2.0 | 0.3 | . | . | .
CCCCOC(=O)C1CCC[C@@H](C)N1 (some centres undefined) | -7.7 | 2.6 | 1.2 | -5.0 | -3.4%
O=C(NCc1nc(-c2ccc(C(F)(F)F)cc2)no1)c1cccs1 | -0.5 | 2.9 | . | . | 5.2%
O=C1CC(C(=O)O)(c2ccccc2)c2cccc(F)c21 (centres undefined) | 8.3 | -2.3 | . | . | .
COc1cc(-c2nc3cnccc3n2C)cc(OC)c1OC | 3.6 | -2.6 | 6.4 | -24.9 | -6.7%
COc1ccc(C)cc1NC(=O)c1cccc(-c2ccc(OC(C)=O)cc2)c1 | 9.7 | 28.8 | . | . | .
CCOC(=O)c1cccc(P(C)(C)=O)c1 | 5.9 | -1.4 | -1.4 | -31.1 | 2.0%
CC1CCN(C(=O)CCc2ccc(S(=O)(=O)NC(C)(C)C)cc2)CC1 | -1.3 | -3.3 | 15.1 | -17.5 | -4.0%
Cc1cc(NS(=O)(=O)c2ccc(NC(=O)c3ccc(Cl)cc3[N+](=O)[O-])cc2)no1 | -8.5 | -0.5 | . | . | .
C#CCN1C(=O)C2(OCCO2)c2ccccc21 | 2.8 | -0.2 | . | . | .
O=C(NNc1cccc(Cl)c1)c1cccnc1Cl | 96.3 | 0.0 | -35.9 | -13.9 | ?
O=C(COc1ccc([N+](=O)[O-])cc1)N(C1CCCCC1)C1CCS(=O)(=O)C1 (centres undefined) | -9.9 | -1.3 | . | . | .
Cc1occc1C(=O)Nc1cccnc1 | 3.9 | 1.1 | -5.6 | 3.7 | -10.4%
COCCCN(CCNC(=O)c1ccc(NC2=NC3CS(=O)(=O)CC3S2)cc1)Cc1ccco1 (centres undefined) | -0.1 | -9.6 | . | . | .
O=C(CCCc1c[nH]c2ccccc12)NCc1cccs1 | 10.1 | 3.7 | -2.8 | . | 6.0%
CCOc1cc(/C=C2\SC(=N)N(c3nonc3N)C2=O)ccc1OCCN1CCOCC1 | 7.1 | -4.0 | 9.1 | . | 4.5%
COc1ccc(/C=C(\NC(=O)c2ccccc2)C(=O)N2CCCCC2)cc1OC | 0.8 | -2.0 | . | . | .
O=C(N/N=C/c1ccccc1)c1[nH]ncc1Br | 1.5 | -1.5 | -0.4 | . | 3.7%
Cc1ccc(S(=O)(=O)N2CCC(CN3C(=O)c4cccc5cccc(c45)C3=O)CC2)cc1 | -16.2 | 1.2 | -2.9 | -22.7 | -3.1%
CCOC(=O)C1CCN(C2=NC(=O)/C(=C/c3ccc(OC)c(OC)c3)S2)CC1 | 3.2 | -1.2 | . | . | .
COc1ccc(CC(=O)Nc2ccccc2C(=O)N2CCOCC2)cc1 | 6.5 | -0.6 | 0.1 | 1.5 | 6.0%
CC1=Nc2ccccc2/C1=C/c1c(O)[nH]c(=O)[nH]c1=O | 6.4 | 0.6 | . | . | .
CCN1CCN(c2ncc(C(=O)Nc3cc(Cl)ccc3OC)c3ccccc23)CC1 | -14.4 | 1.5 | -39.3 | 1.1 | .
COc1ccc(C(=O)N/N=C/c2cccc3cccnc23)cc1 | 99.8 | -6.3 | -30.7 | -26.3 | .
CC(C)=C(NC(=O)c1ccccc1)C(=O)NCCCC(=O)O | 1.1 | -4.0 | 3.9 | -8.2 | -5.0% | Arbovirus inh repeat=0.3
COc1ccc(CCn2c(=N)c(S(=O)(=O)c3ccc(C)cc3)cc3c(=O)n4ccccc4nc32)cc1 | 8.3 | -14.3 | . | . | .
(cont.)
SMILES | Mtb betalactam | RecA intein inh | Arbovirus inh | YopH inh | Mtb H37Rv | others
Cc1cccn2c(CN(C)CC3CCCCO3)c(C(=O)N3CCCCC3)nc12 (centres undefined) | -9.7 | -1.6 | -3.0 | . | 5.9%
C=CCn1c(SCc2nc3ccccc3[nH]2)nnc1-c1ccncc1 | -8.0 | -2.8 | 16.1 | -32.9 | -13.1%
CCOC(=O)c1[nH]cnc1N=Nc1c(O)ccc2ccccc12 | 8.7 | -5.5 | -41.6 | -15.7 | ?
CC(=O)c1ccc(NC(=O)[C@@]2(CC(=O)O)CC(/C=C/c3ccccc3)=NO2)cc1 | -0.4 | -1.3 | . | . | .
NC(=O)CC(NC(=O)Cc1ccc(Br)cc1)c1ccc(NC2CCC2)c([N+](=O)[O-])c1 (centres undefined) | -12.7 | 2.0 | . | . | 12.8%
